Compound activity as filed in PubChem BioAssay.
MgrA-DNA mod: S. aureus MgrA activity modulators, primary screen, biochemical, S. aureus Newman, fluorescence polarization; MgrA-DNA binding; inhibition, %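 (about 10 µg/mL by stock and volumes)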; AID 602314, 2012; 0.13% of 84,000 active;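 active means above 50% in either of two replicates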;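 further: 0% = protein plus DNA without compound and 100% = DNA alone without protein; higher means less MgrA bound to DNA so lower polarization; one replicate is shown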
Sa helicase inh: inhibitors of S. aureus replicative helicase, primary screen, biochemical, fluorescence unwinding readout. replicative DNA helicase (DnaC/DnaB), Staphylococcus aureus. purified S. aureus helicase, fluorescence unwinding assay; about half of the hits fall short of the stated cut. inhibition, %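 (tested at about 80 µM)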. 0.05% of 120,000 active;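 active means both duplicates at 50% or more, or one of them with a favoured structure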;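 further: 0% = mean of negative control wells and 100% = mean of positive control wells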
* = called active by the depositor; · = no result given.

Sa helicase inh	MgrA-DNA mod	mol
6	2.9	CC1C(=O)CCC1(C(=O)Nc1ccccc1)c1ccccc1 (stereo unspecified)
13	-0.9	COC(=O)C12CCCC(C(N)=O)(CCC1)C2
-13	·	COc1ccccc1NC(=O)c1csc2c1CCCC2
-9	1.1	N#CC1=C(SCC(=O)Nc2ccccc2)NC(=O)CC1c1ccccc1 (stereo unspecified)
0	-1.1	CNC(=O)c1ccc(NC(=O)Nc2ccccc2)cc1
-4	-1.1	O=c1c2ccccc2nc(SCCN2CCCCC2)n1CC1CCCO1 (stereo unspecified)
-8	-1.0	Cc1cc(Nc2ccccc2)n(C(=O)c2ccccc2)n1
10	4.3	Cc1cccc(C)c1NC(=O)C1(N(C)C(=O)/C=C/c2ccc3c(c2)OCO3)CCCCC1
-28	·	CCCCNC(=O)c1cc2c(-c3cccc(OC)c3)nn(C)c2s1
·	-1.7	Cc1ccc(Oc2cnc3ccccc3n2)cc1
·	0.0	Cc1ccc(NC(=O)C2COc3ccccc3O2)cc1 (stereo unspecified)
-6	·	Cc1ccccc1OC(=O)c1ccc2ncsc2c1
-8	·	COC(=O)c1cc(NC(=O)CNC2CCCCCC2)cc(C(=O)OC)c1
·	1.9	CCOC(=O)c1c(C=O)oc2c(C)cc(OC(=O)c3ccc([N+](=O)[O-])cc3)c(Br)c12
12	·	CCSc1nnc(NC(=O)C(C)SC2=NCCS2)s1 (stereo unspecified)
·	-1.0	CCSc1nc(-c2ccccc2)cc(=O)[nH]1
17	-3.0	CC[N+]1(CC(O)COc2ccc(Br)cc2Br)CCOCC1 (stereo unspecified)
0	·	Nc1nc(N)nc(COC(=O)CSCc2ccc(Cl)c(Cl)c2)n1
-23	·	CC(C)C(=O)Nc1ccc(S(=O)(=O)N2CCCCC2c2cccnc2)cc1 (stereo unspecified)
14	·	CCOCCn1ccc2c(OCC(=O)NC(C)(C)C)cccc2c1=O

Arranged by value in Sa helicase inh (falling): 6 of the compounds above.
structure	Sa helicase inh
CC[N+]1(CC(O)COc2ccc(Br)cc2Br)CCOCC1 (stereo unspecified)	17
CCOCCn1ccc2c(OCC(=O)NC(C)(C)C)cccc2c1=O	14
CCSc1nnc(NC(=O)C(C)SC2=NCCS2)s1 (stereo unspecified)	12
Cc1ccccc1OC(=O)c1ccc2ncsc2c1	-6
COC(=O)c1cc(NC(=O)CNC2CCCCCC2)cc(C(=O)OC)c1	-8
CC(C)C(=O)Nc1ccc(S(=O)(=O)N2CCCCC2c2cccnc2)cc1 (stereo unspecified)	-23

Additional compounds:
Sa helicase inh	MgrA-DNA mod	mol
·	4.1	COC(=O)C1=C(N)OC2=C(C(=O)CC(C)(C)C2)C1c1cccnc1 (stereo unspecified)
·	-2.3	O=C(O)CC1(CC(=O)N2CCC(n3cccc3)CC2)CCCC1
-8	·	CCN(C(=O)CSc1cccc[n+]1[O-])C1CCCCC1
20	-5.2	CCOc1ccc(-c2cnc3ccccc3n2)cc1
23	2.5	O=C(NCc1ccco1)c1cc2cc(Br)ccc2oc1=O
-13	·	C=CCOc1ccc(CNC(C)(C)C)cc1
16	1.2	O=C(Nc1ccc(F)cc1)c1cc2c(s1)-c1ccccc1SC2
-4	·	O=C(Nc1ccccc1)c1ccn[nH]1
7	·	COc1ccc(N2CC(NC(=O)N3CC(C)OC(C)C3)CC2=O)cc1 (stereo unspecified)
10	·	CN(C)c1ccc(/C=N/OCC(=O)Nc2ccccc2C#N)cc1
·	-2.0	c1ccc(CN2CCC(c3cccs3)=N2)cc1
-1	·	N#Cc1ccccc1NC(=O)C1=COCCO1
·	-3.8	CC(C)CC(NC(=O)c1ccc(Cl)cc1Cl)C(=O)O (stereo unspecified)
10	-0.2	O=C(NCC1OCCc2ccccc21)c1ccc(NC(=O)c2ccco2)cc1 (stereo unspecified)
-4	·	O=C(O)/C=C/c1coc2ccccc2c1=O
·	0.3	S=c1nc[nH]c2c1nnn2Cc1ccccc1Cl
11	1.7	O=C1C=CC(=CN(O)c2ccccc2)C=C1
-27	·	Cc1cc(NC(=O)c2cc3ccc4cccnc4c3[nH]2)no1
13	·	N#C/C(C(=O)N1CCCC1)=c1/s/c(=C\c2ccccn2)c(=O)n1-c1ccccc1
·	0.5	COc1ccc2cc([C@@H](C)C(=O)O)ccc2c1
·	-1.3	COc1ccc(OCC(O)CN)cc1 (stereo unspecified)
-19	·	Clc1ccc(-c2nnc(SCc3nc(-c4ccccc4)no3)o2)cc1
6	-1.0	O=C(NCc1cccs1)C1CCC(CNS(=O)(=O)c2ccccc2)CC1 (stereo unspecified)
-6	0.2	O=C(Cc1ccccc1)OCC(=O)C12CC3CC(CC(C3)C1)C2
21	·	Cc1ccc(NC(=O)CCS(=O)(=O)c2cc3[nH]c(=O)c(=O)[nH]c3cc2C)cc1
3	·	CN(CCO)S(=O)(=O)c1ccc2c(c1)C(=O)c1cc(S(=O)(=O)N(C)CCO)ccc1-2
-12	-0.3	CCOc1ccc2nc(NC(=O)C(CC)CC)sc2c1
·	0.7	CS(=O)(=O)c1scc(-c2cccs2)c1C#N
13	·	CCOC(=O)c1c(C)oc2ccc(OC(=O)NC(=O)N(C3CCCCC3)S(C)(=O)=O)cc12
·	4.4	Cc1ccc(S(=O)(=O)NC(=O)Nc2ccc(C(F)(F)F)nc2C)cc1
7	·	CCCC(CCC)C(=O)Nc1cccc(-c2cn3c(n2)SCC3)c1
-17	1.9	COc1ccccc1OCc1nc2ccccc2s1
2	·	CC1CCCCC1NC(=O)COC(=O)c1ccc(N(C)C)cc1 (stereo unspecified)
-12	·	O=C(Nc1nc(-c2ccc(Cl)s2)cs1)C1=COCCO1
0	-1.9	CC1(C)CN=C(NCCNC2=NCC(C)(C)S2)S1
-3	0.9	CCN(CC)S(=O)(=O)c1cccc(C(=O)Nc2ccc(I)cc2)c1
·	-1.6	CC(C)(C)C(=O)N(Cc1cccnc1)Cc1ccc(Cl)cc1Cl
8	-2.0	CC1(C(=O)O)NC(c2cc(Br)ccc2O)C2C(=O)N(c3ccccc3)C(=O)C21 (stereo unspecified)
·	-0.6	O=C(CSc1nnc(CSCc2cccc3ccccc23)n1-c1ccccc1)c1ccc(C(F)(F)F)cc1
-15	·	CCOC(=O)c1cnc(Nc2nc3ccccc3o2)nc1CSC(=S)N1CCCCC1
-2	2.2	c1ccc(-c2nnc(CN3CCCc4ccccc43)o2)cc1
5	2.1	CN(C)CCCn1c(=N)n(CC(O)C(C)(C)C)c2ccccc21 (stereo unspecified)
-12	·	O=C(OCc1cccc(Cl)c1)c1ccccc1O
1	0.1	O=C(N=c1nc2ccccn2s1)c1ccccc1
12	·	COc1ccc(S(=O)(=O)NCc2cccnc2)c2ccccc12
22	·	Sc1nc2c(Cl)c(Cl)c(Cl)cc2o1
6	1.6	COc1cccc(C(Nc2ccccn2)c2c(C)[nH]c3ccccc23)c1 (stereo unspecified)
-11	·	CCOC(=O)C1CCCc2c1[nH]c1c(C(=O)O)cccc21 (stereo unspecified)
4	·	COC(=O)COc1ccc(=O)n(-c2ccccc2)n1
1	·	COc1ccc(O)c(C(=O)c2cnn(S(=O)(=O)c3ccc(C)cc3)c2)c1

Additional structures:
Sa helicase inh	MgrA-DNA mod	mol
3	·	O=C(Nc1ccc2c(c1)OCO2)c1cc(Cl)sc1Cl
-9	·	Cc1cc(C(=O)Cn2cnc3sccc3c2=O)c(C)n1-c1ccc2c(c1)OCO2
2	-0.2	OC(c1ccccc1)C(F)(F)C1(F)OC(F)(F)C(F)(F)C1(F)F (stereo unspecified)
18	-2.7	Cc1ccc(CNCC(C)O)s1 (stereo unspecified)
8	0.6	O=C1COc2ccccc2N1Cc1ccccc1Cl
-21	·	O=C(CCn1c(=O)oc2ccccc21)N1CCN(Cc2ccc3c(c2)OCO3)CC1
11	·	CCCn1c(C)cc(C(=O)CSc2nnc(-c3cccc(S(=O)(=O)N(CC)CC)c3)o2)c1C
12	·	CN(C)c1ccc(C2(C)Oc3ccccc3C(=O)N2c2ccccc2)cc1 (stereo unspecified)
·	0.2	Cc1cccc(-c2nc3sc4c(c3c(=O)o2)CCCCC4)c1
8	2.5	O=c1oc2cc(O)ccc2c2c1CCC2
-11	·	COC(=O)c1ccc(Oc2ncnc3sc(C)c(C)c23)cc1
21	-1.8	CC(C)(C)N1C(=O)c2ccc(-c3nc4ccccc4o3)cc2C1=O
·	-2.0	Cn1nc(OC(C)(C)C(=O)NC(C)(C)C)cc1C(F)(F)F
3	-0.2	Cc1ccccc1CN1CCN(C(=O)c2ccco2)CC1
·	-0.9	Cc1c(Br)sc2sc(C(=O)/C=C/N(C)C)c(C)c12
-2	0.9	CC1=C(C#N)C(C)(C)C(C#N)=C(C)N1
·	2.3	COc1ccc(C[C@H](N)C(=O)N[C@@H]2[C@@H](CO)OC(n3cnc4c(N(C)C)ncnc43)[C@@H]2O)cc1 (stereo partly specified)
-6	·	COc1ccc(Cl)c(N2CC(c3nc4ccccc4n3C(C)C)CC2=O)c1 (stereo unspecified)
4	0.2	O=C(O)CCNC(=O)c1ccco1
3	2.0	Cc1cccc(NC(=O)C2c3ccccc3Oc3ccccc32)c1
-21	·	COc1cccc(OC)c1OCC(O)CN1CCN(C)CC1 (stereo unspecified)
1	2.6	Cc1nc2ccc(C(=O)N3CCN(Cc4ccccc4)CC3)cc2[nH]1
·	-0.1	O=c1[nH]cnc2scc(-c3ccc4ccccc4c3)c12
10	3.1	CCc1cc(=O)[nH]c(SC)n1
-43	·	CSc1ccc(/C=C2/NC(=O)NC2=O)cc1
10	-2.4	COc1ccc(C(O)c2nccn2Cc2ccccc2)cc1OC (stereo unspecified)
1	-4.8	CCCCNC(=O)Cn1c(-c2ccc(OC)cc2)noc1=O
·	2.4	CC(CC(=O)Nc1cccc(Cl)c1)N1CCCC1 (stereo unspecified)
20	·	O=C(Nc1nc(CN2CCCCC2)cs1)c1ccc(-n2cccn2)cc1
36	·	O=C(Nc1ccc(-c2n[nH]c(=S)o2)cc1)c1ccccc1
18	·	CC1CCC(NC(=O)C(C)n2ncn3cccc3c2=O)CC1 (stereo unspecified)
13	·	Cc1[nH]c2ccc(C(=O)OCC(=O)NC3CC3)cc2c1C
·	0.7	Clc1ccccc1CSC1=NCCN1
2	·	CCn1c(=O)c(C(=O)CSc2nnnn2Cc2cccs2)c(N)n(Cc2ccccc2)c1=O
11	3.9	CC1(C)Oc2ccc(C(=O)Nc3ccccc3)cc2N(CC(=O)N2CCCC2)C1=O
25	·	COc1ccc(CNCc2ccc3c(c2)OCO3)cc1
·	7.9	O=[N+]([O-])c1ccc(Sc2n[nH]c(=S)s2)c([N+](=O)[O-])c1
-11	·	CCN(CC)c1c(-c2ccccc2)c2cc(Br)ccc2[nH]c1=O
11	·	O=C(Cc1csc(N2CCCC2=O)n1)Oc1ccc2c(c1)OCO2
·	-2.4	FC(F)(F)c1cc(-c2nnc(-c3ccc(Cl)cc3)o2)cc(C(F)(F)F)c1

Compounds listed so far that have two or more sulfur atoms:
Sa helicase inh	MgrA-DNA mod	mol
12	·	CCSc1nnc(NC(=O)C(C)SC2=NCCS2)s1 (stereo unspecified)
16	1.2	O=C(Nc1ccc(F)cc1)c1cc2c(s1)-c1ccccc1SC2
6	-1.0	O=C(NCc1cccs1)C1CCC(CNS(=O)(=O)c2ccccc2)CC1 (stereo unspecified)
3	·	CN(CCO)S(=O)(=O)c1ccc2c(c1)C(=O)c1cc(S(=O)(=O)N(C)CCO)ccc1-2
·	0.7	CS(=O)(=O)c1scc(-c2cccs2)c1C#N
-12	·	O=C(Nc1nc(-c2ccc(Cl)s2)cs1)C1=COCCO1
0	-1.9	CC1(C)CN=C(NCCNC2=NCC(C)(C)S2)S1
·	-0.6	O=C(CSc1nnc(CSCc2cccc3ccccc23)n1-c1ccccc1)c1ccc(C(F)(F)F)cc1
-15	·	CCOC(=O)c1cnc(Nc2nc3ccccc3o2)nc1CSC(=S)N1CCCCC1
11	·	CCCn1c(C)cc(C(=O)CSc2nnc(-c3cccc(S(=O)(=O)N(CC)CC)c3)o2)c1C
·	-0.9	Cc1c(Br)sc2sc(C(=O)/C=C/N(C)C)c(C)c12
2	·	CCn1c(=O)c(C(=O)CSc2nnnn2Cc2cccs2)c(N)n(Cc2ccccc2)c1=O
·	7.9	O=[N+]([O-])c1ccc(Sc2n[nH]c(=S)s2)c([N+](=O)[O-])c1

The results go on.
Sa helicase inh	MgrA-DNA mod	mol
6	·	COc1ccc2c(c1)nc(SCc1ccccc1)n2C
7	·	C=CCN(CC=C)C(=S)Nc1ccc(OC)cc1
0	·	Cc1cc2nc(Sc3ccccc3Cl)cc(=O)n2o1
10	·	O=C1C2C3C=CC(C3)C2C(=O)N1CN1CCCCCC1 (stereo unspecified)
7	1.6	Cc1cccc(C)c1OCC(=O)Nc1c(C)nn(C)c1C
-20	·	O=C(O)COc1ccc2c(=O)c(-c3cscn3)coc2c1
16	0.0	Cc1nc2ccccc2n1CCOc1ccc(Br)cc1
-20	·	Nc1ncnc2c1ncn2Cc1ccccc1
·	-1.2	Cn1c2c(c3ccccc31)/C(=N/OC(=O)c1ccc(Cl)cc1)CCC2
7	·	O=C1CCN(C(=O)CCCc2nc3ccccc3s2)CC1

Reformatted with bars between the fields: part of the list above
smiles | Sa helicase inh | MgrA-DNA mod
C=CCN(CC=C)C(=S)Nc1ccc(OC)cc1 | 7 | ·
Cc1cc2nc(Sc3ccccc3Cl)cc(=O)n2o1 | 0 | ·
O=C1C2C3C=CC(C3)C2C(=O)N1CN1CCCCCC1 (stereo unspecified) | 10 | ·
Cc1cccc(C)c1OCC(=O)Nc1c(C)nn(C)c1C | 7 | 1.6

Next section:
Sa helicase inh	MgrA-DNA mod	mol
-11	·	CCC1(C)NC(=O)NC1=O (stereo unspecified)
·	-1.1	CSc1nnc(C(F)(F)F)n1C
-13	0.8	O=C(CCCn1c(=O)c2ccccc2n(CC(=O)c2ccc(F)cc2)c1=O)NC1CCCC1
12	2.6	CCCN=C1CC(C)(C)CC(=O)/C1=C(\O)Cc1ccc(OCC)c(OCC)c1
2	4.1	OC1CSc2nc3ccccc3n21 (stereo unspecified)
-1	·	CCOc1ccccc1NC(=S)N(C1CCCCC1)C(C)c1ccco1 (stereo unspecified)

The list is partial, so the mix of outcomes need not match the whole.
